CDC25B-CDK2 inh: human CDC25B-CDK2/CyclinA binding inhibition; 94,000 compounds, 0.72% hits; z-score (no concentration beside the values); HTRF CDC25B-CDK2/CyclinA binding, anti-His/anti-Flag; active compounds read high; P30305+P24941; AID 1259370;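 note: score is relative to mean and SD of negative controls; strong numbers were not always called active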
TAR Tat displ: HIV-1 TAR-Tat binding disruption; HIV-1 TAR RNA, Tat peptide displacement FRET; active compounds read high; AID 1259389; z-score (test concentration not listed); 100,000 compounds, 0.6% hits;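 note: score is relative to mean and SD of negative controls; some compounds called inactive have numbers as strong as hits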
The depositor's hits bear a star; . = no result given.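 Rule for the calls: active = z-score from 3 up in half or more of its runs; inactive = the rest.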

SMILES	CDC25B-CDK2 inh	TAR Tat displ
Cc1ccc2cc3c(nc2c1)N(c1ccc(C(=O)O)cc1)CC3	-0.96	.
CNC(=O)c1c[nH]c2ccc(S(=O)(=O)Nc3ccccc3C)cc2c1=O	0.26	.
O=C1CCC(=O)N1c1nc2n(n1)C(c1ccccc1)C=C(c1ccc(Cl)cc1)N2 (configuration not stated)	-0.69	.
CCc1nnc2c3ccccc3nc(Nc3ccc(F)cc3C)n12	-3.29	1.15
CCCSc1ncc(Cl)c(C(=O)Nc2sc3c(c2C(=O)NCC)CCCC3)n1	-1.57	-6.22
O=C(Nc1cccc(Cl)c1)OCC#Cc1ccc(-c2ccccn2)s1	2.08	.
Cc1c(C(=O)N2CCC(c3nc4ccccc4o3)CC2)oc2ccc(Cl)cc12	1.29	1.49
COc1ccc(/C=C/c2sc3ccc(O)cc3[n+]2C)cc1	0.53	-5.1
CCC(C(=O)NCc1cccs1)n1nc(C)n2c(cc3occc32)c1=O (configuration not stated)	0.94	-0.04
O=C(c1ccc(CS(=O)c2ccccc2Cl)o1)N1CCN(c2ccccc2)CC1 (configuration not stated)	.	1.11
Cc1cc(C)c2c(=O)cc(C(=O)Nc3sc4c(c3C(=O)NCc3ccco3)CCCC4)oc2c1	0.35	-0.11
O=C(N=Nc1c(O)n(CN2CCCCCC2)c2ccccc12)c1ccncc1	-0.83	.
CCc1ccc2c(c1)c(=O)c(S(=O)(=O)c1ccc(Cl)cc1)cn2CC	-0.98	1.35
COc1ccccc1N1CCN(c2ncnc3nc[nH]c23)CC1	-2.73	-0.86
COc1ccc(S(=O)(=O)[C@H]2CS(=O)(=O)C[C@@H]2N2C[C@H](C)C[C@H](C)C2)cc1	-1.4	1.64
CCc1ccc(-n2c(CN3CCNCC3)nc3cccnc32)cc1	.	1.83
C=CCNc1nnc(COc2ccc(Br)cc2)s1	-0.07	0.65
COc1cccc(C2CC(C(F)(F)F)n3ncc(C(=O)O)c3N2)c1 (configuration not stated)	-0.86	-0.61
Cc1ccccc1NC1=NC2(CCCCC2)N=C(N)N1	-0.97	.
Cc1ccc(C)n1-c1nnc(N2CCC(C(=O)O)CC2)s1	3.89	1.31
COC(=O)c1cc(S(=O)(=O)N2CCC(C)CC2)c[nH]1	.	2.48
CCCN1CCN(c2cc3c(cc2F)c(=O)c(S(=O)(=O)c2ccc(Cl)cc2)cn3CC)CC1	.	1.15
NC(=O)CSc1nccn1Cc1ccc2c(c1)OCO2	.	0.7
O=C(Cc1ccccc1)N1N=C(c2ccc(Br)cc2)CC1(O)C(F)(F)F (configuration not stated)	-1.71	.
CCOC(=O)C1=C(C)NC2=C(C(=O)CC(C)(C)C2)C1c1ccccc1F (configuration not stated)	-0.96	-0.45

Laid out differently: five of the compounds above.
Values in the order – CDC25B-CDK2 inh	TAR Tat displ
CCc1ccc2c(c1)c(=O)c(S(=O)(=O)c1ccc(Cl)cc1)cn2CC
  -0.98	1.35
COc1ccccc1N1CCN(c2ncnc3nc[nH]c23)CC1
  -2.73	-0.86
COc1ccc(S(=O)(=O)[C@H]2CS(=O)(=O)C[C@@H]2N2C[C@H](C)C[C@H](C)C2)cc1
  -1.4	1.64
CCc1ccc(-n2c(CN3CCNCC3)nc3cccnc32)cc1
  .	1.83
C=CCNc1nnc(COc2ccc(Br)cc2)s1
  -0.07	0.65

Next results.
SMILES	CDC25B-CDK2 inh	TAR Tat displ
CC1CCN(C(=O)C2=CC(c3ccco3)=NS(=O)(=O)N2C)CC1	-1.54	-0.88
Cc1cccc(-c2noc(-c3cccnc3NCc3cccnc3)n2)c1	-0.31	2.25
Cc1c(NC(=O)/N=C2/NC(=O)CS2)sc2nc3n(c(=O)c12)CCC(C)CC3 (configuration not stated)	0.21	0.75
COc1ccccc1N1CCN(c2cnn(-c3nc4ccccc4s3)c(=O)c2Cl)CC1	-3.53	0.02
O=C(CSCc1ccccc1)Nc1nnc2n1CCCS2	.	0.45
Cc1ccc(N(C)c2c(-c3ccc4c(c3)OCC(=O)N4)c(=O)c2=O)cc1	.	-0.39
CCOC(=O)N1CCN(C(=O)C2CCC(CNc3c(N4CCCCC4)c(=O)c3=O)CC2)CC1 (configuration not stated)	-1.91	2.17
Cn1cc(NC(=O)NCCc2ccsc2)c2ccccc2c1=O	.	-0.82
Cc1nc2nc(C)c(NS(=O)(=O)c3ccc(C4CCCCC4)cc3)c(=O)n2[nH]1	0.62	0.92
O=S(=O)(Cc1ccccc1)N1CCC(c2nnnn2-c2ccc(F)cc2)CC1	-0.96	1.29
C#CCNc1sc(C(C)=O)cc1[N+](=O)[O-]	-1.35	.
CCCCC1=NN(C(=O)COc2c(C)cc(C)cc2C)C(O)(C(F)(F)F)C1 (configuration not stated)	0.07	.
COc1ccc(/C=N/NC(=O)c2cccnc2)cc1	-1.96	.
Cc1nonc1NC(=O)Nc1cccnc1	-1.36	-0.58
CCOc1ccccc1Oc1ncnc2c1oc1ccccc12	.	0.43
CCN1CCCC1CNC(=O)c1nnc(CS(=O)(=O)c2ccccc2)o1 (configuration not stated)	7.59*	0.77
O=C(Cn1ncn2nc3c(c2c1=O)CCCC3)Nc1ccc(F)cc1	.	-0.27
COc1ccc(N2C(=O)Nc3ccccc3S2(=O)=O)cc1OC	.	0.5
Cc1ccc(S(=O)(=O)Oc2ccc(C)cc2Br)cc1	-1.45	.
CC(C)n1cc2c(c1-c1ccccc1)c(=O)n(C)c(=O)n2C	-0.76	.
Cc1ccc(-c2c(C#N)c(N)nc3c2CCCC3)o1	-0.18	-0.23
CC1(C)Cc2c(sc3nc(SCc4ccc5c(c4)OCO5)nc(N)c23)CO1	-1.11	-1.19
Oc1ccc2c(c1)OCC1c3cc4c(cc3OC21)OCO4 (configuration not stated)	.	2.3
COc1ccc(S(=O)(=O)NCc2nnnn2C2CCCCC2)cc1OC	.	1.72
CCC(C)NS(=O)(=O)c1cc(C(=O)OC)n(C)c1 (configuration not stated)	-0.41	1.31

(further entries)
SMILES	CDC25B-CDK2 inh	TAR Tat displ
Cc1cc(Nc2ccc(Br)cc2F)n2nnnc2n1	-0.01	-0.1
Cn1c(=O)c2c(-c3cccc(Br)c3)n(-c3ccc(F)cc3)cc2n(C)c1=O	-0.3	1.61
COc1cccc(/C=C2\SC(=S)C(N)C2=O)c1OC (configuration not stated)	-2.08	.
CC(C)NC(=O)c1nn(-c2ccc(Cl)cc2)nc1CO	-0.24	-0.3
N#CCCNc1ccc(N=Nc2ccc(Cl)cc2)cc1	-0.33	.
CCc1ccc(S(=O)(=O)c2nnn3c2nc(N(CC)CC)c2sccc23)cc1	.	-1
O=C(Cn1ccc2ccccc2c1=O)NCC(=O)N1CCOCC1	-0.38	-0.96
O=C(CSc1nc(-c2cccs2)cc(C(F)(F)F)n1)NCc1ccco1	-0.21	1.52
CC1CCC(NC(=O)c2cn(C)c3ccc(S(=O)(=O)N4CCCC4)cc3c2=O)CC1 (configuration not stated)	-0.97	.
COc1cnc(CSc2ncccn2)cc1OCC(=O)Nc1ccc2c(c1)OCCO2	.	2.1
N#Cc1cc2c(=O)n3ccccc3nc2n(C2CCS(=O)(=O)C2)c1=O (configuration not stated)	-0.98	-0.39
O=S(=O)(O/N=C1\CCc2ccccc21)c1ccc(Cl)cc1	-3.45	.
O=C(CN(C1=NC2CS(=O)(=O)CC2S1)c1cccc(Cl)c1)Nc1ccccc1 (configuration not stated)	-5.87	0.88
O=C(CSc1nc(-c2ccccc2)nc2cc(=O)[nH]n12)Nc1ccccc1F	.	1.93
Cc1cc(NC(=O)c2nccnc2C(=O)O)n(C)n1	-1.55	.
O=C1CN(Cc2ccccc2F)S(=O)(=O)c2ccccc2N1Cc1ccc(Cl)cc1	.	2.06
Cc1ccc(-c2nc(N)sc2-c2ccccc2)cc1	-1.63	1.3
N#CCC(=O)NCCCOC(=O)Nc1ccc(Cl)c(Cl)c1	0.25	.
Cc1ccc(S(=O)(=O)N2CCN(S(=O)(=O)c3ccc4c(ccn4C)c3)CC2)c2nsnc12	.	-0.17
O=C1C(=O)N(CCCN2CCOCC2)C(c2ccco2)/C1=C(\O)c1ccc(Cl)cc1 (configuration not stated)	-2.49	0.15
COc1ccc2nc(NC(=O)c3csnn3)sc2c1	-2.09	-0.3
Cc1cc(Oc2ccccc2F)nc(NCc2ccccc2)n1	-1.35	.
Cc1ccc(C)c(Nc2nnc(-c3ccc(C)c(S(=O)(=O)NCCO)c3)c3ccccc23)c1	-0.27	0.29
Cc1nn(C)c(C)c1CN(C)C(=O)c1cc2nc(-c3ccc4c(c3)OCO4)cc(C(F)(F)F)n2n1	-1.68	2.3
CCS(=O)(=O)c1ccc(O)c(NC(=O)COc2ccc(Br)cc2)c1	-1.94	-0.36

(next part)
SMILES	CDC25B-CDK2 inh	TAR Tat displ
CSc1ncc2c(n1)CC(C)(C)C/C2=N\OC(=O)c1cccc(C(F)(F)F)c1	-1.64	.
CC(=O)C1=CN=C(c2ccc(Cl)cc2)SC1	-1.7	.
Cc1cc(=O)oc2ccc(NS(=O)(=O)c3ccc4c(c3)oc(=O)n4C)cc12	-0.34	.
Cn1c(=O)c2c(nc(NCC3CCCO3)n2Cc2ccc(Br)cc2)n(C)c1=O (configuration not stated)	-1.68	-1.16
CCCOC(=O)COc1ccc2c(=O)c(Oc3ccc(OC)cc3)coc2c1	-0.31	2.09
COc1cc(OC)c(NC(=O)Nc2nc3ccc(S(C)(=O)=O)cc3s2)cc1Cl	1.8	1.04
O=C(O)CCC(Nc1ncnc2ccccc12)C(=O)O (configuration not stated)	-1.93	-0.85
NC(=O)c1cc(Cl)cn(-c2ccccc2)c1=O	-1.87	-0.48
Cc1ccc(-c2cnc(C3CC3)o2)cc1S(=O)(=O)Nc1c(C)cccc1C	.	1.79
CN1CCN(c2nc3c(c(=O)n(C)c(=O)n3C)n2CC(O)COc2ccc(Cl)cc2)CC1 (configuration not stated)	0.42	.
Cc1ccc(C2C3=C(CC(C)(C)CC3=O)Nc3[nH]n(-c4ccccc4)c(=O)c32)cc1 (configuration not stated)	-1.42	.
Cc1nn(-c2ccc(N3CCOCC3)nn2)c(C)c1CCC(=O)Nc1cccnc1	.	-0.46
N/C(=N\OC(=O)c1ccc(Cl)cc1)c1ccc([N+](=O)[O-])cc1	1.67	.
CCOC(=O)CSc1nc(-c2ccc(OC)cc2)cc(C(F)(F)F)c1C#N	-1.51	0.53
CC1=C(c2ccc(C)cc2)S(=O)(=O)NC1=NCCN1CCOCC1	-0.9	-1.23
CCOC(=O)c1c(NC(=O)CSc2cc(C)nc(C)n2)sc2c1CCCC2	-0.9	1.29
Cc1ccc(CNCc2cccn2-c2nnc(N3CCCC3)s2)cc1	.	2.22
CCCCN(CC)C(=O)Cc1c(C(=O)O)[nH]c2ccc(Cl)cc12	-0.7	.
O=C1CCCN1CC(CN1CCOCC1)Sc1nnnn1-c1ccccc1 (configuration not stated)	-1.34	2.16
O=C(CSc1n[nH]c(-c2ccco2)n1)c1ccc(Cl)cc1	-2.18	17*
O=C(NCc1cccs1)C1C2C=CC3(CN(Cc4cccnc4)C(=O)C13)O2 (configuration not stated)	-1.92	-0.16
Cn1ncc2c(Nc3ccc(F)cc3)nc(NCCCO)nc21	.	0.16
COC(=O)COC(=O)c1ccccc1[N+](=O)[O-]	-0.72	.
COc1ccc(/C=C/C(=O)c2c(OC)cc(O)cc2OC)cc1	.	1.86
COc1ccc2nc(-n3nc(C)c4c3NC(=O)CC4c3ccc([N+](=O)[O-])s3)sc2c1 (configuration not stated)	.	-0.04

Next records.
SMILES	CDC25B-CDK2 inh	TAR Tat displ
O=S(=O)(NCC(c1ccco1)N1CCOCC1)c1ccc(F)cc1 (configuration not stated)	.	0.8
CCC(NS(=O)(=O)c1ccc2c(c1)N(C(C)=O)CCO2)c1cccs1 (configuration not stated)	2.67	1.19
CC(=O)NC1=NN(C(C)=O)C(c2cc(Br)ccc2OCCOc2ccccc2)S1 (configuration not stated)	-2.6	0.19
Cc1cc(C)c(CSCCNC(=O)NC(C)(C)C)c(C)c1	-0.13	.
O=C(NCC(c1cccs1)S(=O)(=O)c1cccs1)C(=O)NC1CCCC1 (configuration not stated)	.	2
CCC(C)NC(=O)C1c2ccccc2C(=O)N(C)C1c1cccs1 (configuration not stated)	-0.98	.
CN(C1CCCCC1)C1CCN(S(=O)(=O)c2ccc3c(c2)NC(=O)CCS3)CC1	.	0.96
CCNc1nc2c3ccccc3n(C(C)=O)c2s1	-0.95	-0.3
CSc1ccccc1NC(=O)C1=CC(c2ccco2)=NS(=O)(=O)N1C	-2.51	1.38
COc1cccc(Nc2nc(N3CCN(c4ccc(F)cc4)CC3)nc3c2cnn3C)c1	.	0.1
COc1ccc(CNCCCSc2nnnn2C)c(OC)c1	-1.14	-0.49
CC1CCN(c2ccc3nnc(CCC(=O)NC4CCCC4)n3n2)CC1	.	-2.19
Cc1cc(C)cc(NCC(O)Cn2nnnc2-c2ccccc2)c1 (configuration not stated)	-2.6	3.48
CSc1nc2cc(Cl)ccc2s1	-0.84	.
O=C(CCC(=O)N1CCOc2ccccc21)N1CCC2(CC1)OCCO2	-0.45	.
CSc1cc(C(C)(C)C)nn1C(=O)Nc1ccccc1	-0.71	.
Cc1cc(Cl)ccc1NS(=O)(=O)c1cc(-c2cnc(C3CC3)o2)ccc1C	.	0.51
Cc1csc(NCc2cccnc2)[n+]1C	-1.5	.
CC1CC(C)(C)NC(=S)N1CCCC(=O)Nc1ccc(Br)cc1 (configuration not stated)	-0.79	.
Cn1ncc2c(Nc3cccc(F)c3)ncnc21	.	0.44
CC1CCCN(C(=O)C2CCC(CNS(=O)(=O)c3ccc4c(c3)C(C)(C)C(=O)N4C)CC2)C1 (configuration not stated)	.	1.17

Entries listed so far that contain a COOH group:
SMILES	CDC25B-CDK2 inh	TAR Tat displ
Cc1ccc2cc3c(nc2c1)N(c1ccc(C(=O)O)cc1)CC3	-0.96	.
COc1cccc(C2CC(C(F)(F)F)n3ncc(C(=O)O)c3N2)c1 (configuration not stated)	-0.86	-0.61
Cc1ccc(C)n1-c1nnc(N2CCC(C(=O)O)CC2)s1	3.89	1.31
Cc1cc(NC(=O)c2nccnc2C(=O)O)n(C)n1	-1.55	.
O=C(O)CCC(Nc1ncnc2ccccc12)C(=O)O (configuration not stated)	-1.93	-0.85
CCCCN(CC)C(=O)Cc1c(C(=O)O)[nH]c2ccc(Cl)cc12	-0.7	.

High-throughput results deposited in PubChem by Center for Chemical Genomics, University of Michigan.
